D2 potentiator = Beta-Arrestin HTS for Positive Allosteric Modulators of the Human D2 Dopamine Receptor: Potentiators; D(2) dopamine receptor (Homo sapiens), P14416; DiscoveRx D2 beta-arrestin cells, luminescence, 90 min; 100% = 57 uM dopamine signal; potentiation, % (test concentration not listed); hit rate 0.23% among 360,000; AID 624464, 2012; active = potentiation of 50% or more; inconclusive = 30% to 50%; inactive = 30% or less;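 note: compound concentration not given in the record; tested on top of an EC20 dose of dopamine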
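PathHunter beta-arrestin assay in DiscoveRx D2 cells. Compounds were added with an EC20 of dopamine (50 nM final) for 90 min at 37 deg C. Luminescence was read 1 h after detection reagent, with 57 uM dopamine as the EC100 control.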
TRPML1 ag = qHTS for Agonists of the Human Mucolipin Transient Receptor Potential 1 (TRPML1); TRPML1-expressing cells, Ca2+ dye fluorescence, FDSS; host cell line not named in the record; reference of the full effect not given here; activation, % (concentration not given with the values); hit rate 0.12% among 410,000; AID 624414, 2012; in the data active = activation above about 50%; inconclusive = about 30% to 50%; inactive = below about 30%; note: 0% is about no effect; the text of the record puts the active cut at 80%
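Agonist activity was taken from a 110 s kinetic Ca2+ dye read on the FDSS after pinning compounds onto TRPML1-DL cells. The cells were seeded at 1,500/well with Tet inducer, incubated about 16 h, then dye-loaded at room temperature.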
Six1-Eya2 blk = qHTS Assay for Inhibitors of the Six1/Eya2 Interaction; Homeobox protein SIX1 (Homo sapiens) + Protein phosphatase EYA2 (Homo sapiens), …; AlphaScreen GST-Six1/His-Eya2 binding, biochemical; stronger effect = lower value; control for the full effect not named in the record; activity change, % (test concentration not listed); hit rate 0.56% among 360,000; in the data active = activity change below about -65%; inconclusive = about -30% to -65%; inactive = above about -30%; note: % is set by controls: 0 for no effect and ±100 for the full control effect; compound concentration not given in the record
Target sequence (O00167 whole entry, looked up): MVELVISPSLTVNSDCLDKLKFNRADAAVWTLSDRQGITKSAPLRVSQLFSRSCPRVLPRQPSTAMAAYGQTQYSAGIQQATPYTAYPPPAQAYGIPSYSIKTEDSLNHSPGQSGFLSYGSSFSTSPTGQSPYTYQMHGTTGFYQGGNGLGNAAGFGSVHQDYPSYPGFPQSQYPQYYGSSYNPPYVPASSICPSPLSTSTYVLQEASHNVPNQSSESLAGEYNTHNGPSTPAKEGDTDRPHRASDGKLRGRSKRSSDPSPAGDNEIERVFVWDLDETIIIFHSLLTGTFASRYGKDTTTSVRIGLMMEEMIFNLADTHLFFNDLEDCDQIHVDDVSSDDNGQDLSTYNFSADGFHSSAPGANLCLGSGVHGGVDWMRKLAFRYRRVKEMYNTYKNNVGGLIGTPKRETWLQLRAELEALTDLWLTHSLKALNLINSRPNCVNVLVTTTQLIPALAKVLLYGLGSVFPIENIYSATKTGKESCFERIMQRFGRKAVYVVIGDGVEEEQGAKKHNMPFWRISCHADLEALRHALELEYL
Target sequence (Q15475 whole entry, looked up): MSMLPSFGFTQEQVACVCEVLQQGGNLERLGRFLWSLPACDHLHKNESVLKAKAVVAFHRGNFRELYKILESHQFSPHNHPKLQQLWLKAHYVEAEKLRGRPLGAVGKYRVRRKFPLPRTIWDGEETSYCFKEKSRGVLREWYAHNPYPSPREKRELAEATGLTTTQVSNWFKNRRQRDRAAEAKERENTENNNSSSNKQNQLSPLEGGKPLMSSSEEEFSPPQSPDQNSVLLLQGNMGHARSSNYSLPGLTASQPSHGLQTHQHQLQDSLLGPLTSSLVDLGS
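Compounds are tested against tagged Six1 and Eya2 proteins bridged by glutathione donor and nickel acceptor beads; after a one-hour incubation at 37 °C without light, AlphaScreen emission is recorded.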
PINK1 expr mod = A Quantitative High throughput Screen to Identify Chemical Modulators of PINK1 Expression; PINK1 immunofluorescence, high-content cytometry, 24 h; Potency, µM (doses to about 76.6 µM), without a hit: at the highest dose activation (PINK1 increase), hits mostly activators; hit rate 0.2% among 410,000; active = well fitted activation curve with a large enough effect; inconclusive = small, poorly fitted or top-dose-only effect; inactive = flat fitted curve, though single readings scatter; cell line not stated here;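 note: potency is the fitted concentration of half-maximal effect; % of control where 0% means no effect; nearly all actives have a fitted effect of over 65% in size; a mitochondrial uncoupler was the plate control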
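Measures PINK1 amount and localization on or inside mitochondria by immunofluorescence. Stable cells get compounds at 5 concentrations for 24 hours before fixation and staining; CCCP controls included.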
CtBP-E1A inh = qHTS Assay for Inhibitors of the CtBP/E1A Interaction. CtBP / adenovirus E1A interaction (AlphaScreen). AlphaScreen GST-E1A/His-CtBP binding, 1536-well; stronger effect = lower value; control for the full effect not named in the record. activity change, % (concentration not given with the values). hit rate 0.49% among 340,000; in the data active means activity change below about -65%; inconclusive means about -30% to -65%; inactive means above about -30%; note: % is set by controls: 0 for no effect and ±100 for the full control effect
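GST-E1A and His-tagged CtBP (125 nM each as 5X stock) were preincubated with pin-transferred compound for 2 h at 37 °C in the dark, then glutathione donor and nickel acceptor beads were added for 1 h before AlphaScreen reading.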
D2 agonist = Beta-Arrestin HTS for Positive Allosteric Modulators of the Human D2 Dopamine Receptor: Agonists; hit rate 0.084% among 360,000; D(2) dopamine receptor (Homo sapiens), P14416; DiscoveRx PathHunter D2 beta-arrestin, luminescence, 90 min; 100% = 57 uM dopamine signal; activation, % (test concentration not listed); in the data active = activation above about 40%; inconclusive = about 15% to 40%; inactive = below about 15%; note: compound concentration not given in the record; the text of the record calls up to 30% inactive
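Agonist mode: compounds alone added to overnight-plated D2 PathHunter cells for 90 min at 37 C, with 57 uM final dopamine (EC100) defining full response. Beta-arrestin recruitment detected by chemiluminescent reagent, read after 1 h at ambient temperature.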
Active calls of the source: *; ? = inconclusive; . = no result given; [ ] = another dose, or the depositor's remark. Hits appear at their usual frequency; about 1.3% have a hit in one of these screens.

SMILES | D2 potentiator | TRPML1 ag | Six1-Eya2 blk | PINK1 expr mod | CtBP-E1A inh | D2 agonist
CCOC(=O)C(NC(=O)c1cccc(Cl)c1)(Nc1nnc(C)s1)C(F)(F)F (stereo not drawn) | -20.4 | -0.6 | 4.7 | -1.2% | 5.0 | -1.4
Cc1nn(-c2ccccc2)c(N)c1C(c1ccccc1)c1c(C)nn(-c2ccccc2)c1N | 9.5 | -0.1 | -6.8 | 0.1% | 7.1 | -2.3
O=C(CCCN1C(=O)/C(=C\c2ccccc2)SC1=S)Nc1ccc(O)cc1 | 3.7 | 4.5 | -21.3 | -1.2% | ? | -0.4
OCn1c2ccccc2c2ccccc21 | -6.2 | 0.2 | -0.2 | 1.9% | . | -0.7
COc1cccc(-c2nc3ccc([N+](=O)[O-])cc3o2)c1 | -3.7 | 0.1 | 6.7 | 5.9% | 4.9 | 0.2
CCc1cc2c(SCC(=O)C(C#N)=C3N(C)c4ccccc4N3C)ncnc2s1 | -10.8 | -0.4 | 5.8 | 0.8% | -0.5 | 0.2
Cc1ccc(S(=O)(=O)N[C@H](C(=O)N2CCC(C(=O)N[C@@H](CC(=O)O)C(=O)O)CC2)C(C)C)cc1 | -22.4 | . | 9.6 | -1.1% | 6.5 | -2.2
CCOc1cc(C2NN=C(c3ccccc3)S2)ccc1OCc1ccc(F)cc1 (stereo not drawn) | 2.5 | 0.6 | 2.4 | 4.8% | 11.3 | -6.1
COc1ccccc1-n1c(SCC(=O)O)nnc1-c1ccc(S(=O)(=O)N2CCCCC2)cc1 | -4.8 | 0.1 | -9.2 | 5.6%[38.3 µM] | -6.5 | -2.7
O=C(CN1C(=O)NC(c2ccccc2)(c2ccccc2)C1=O)N1CCN(c2ccccc2F)CC1 | -12.5 | -0.8 | -19.3 | -0.8% | . | -2.3
Cc1cc(Nc2ccccc2)n(-c2nc3ccccc3[nH]2)n1 | 20.4 | -0.1 | -3.1 | 4.6% | -1.1 | -3.0
COc1ccc(NC(=O)N2CCCC2C(=O)NCc2ccc(F)cc2)cc1 (stereo not drawn) | -6.0 | -0.8 | 4.9 | 0.3% | 5.2 | -3.5
O=C(C1=C[C@@H](c2coc3ccccc3c2=O)C[C@@H](OCCCCO)O1)N1CCN(Cc2ccccc2)CC1 | -6.3 | -0.8 | 2.4 | -0.7% | -23.9 | -0.2
Nc1ccc(CSc2ccc(Cl)cc2)cc1 | -5.5 | 0.3 | 10.0 | -0.4% | -11.4 | 7.4
O=C1CSC(c2ccccn2)N1c1ccc(Br)cc1 (stereo not drawn) | -5.0 | 0.1 | -4.0 | -0.6% | -9.1 | -2.8
COc1ccnc(N=CNOCc2cccc(C(F)(F)F)c2)c1C#N | -5.4 | 0.3 | -15.6 | -1.0% | 6.1 | -0.8
COc1cc(Br)c(/C=C/c2ccc3cccc(O)c3n2)cc1OC | -10.5 | 2.5 | 0.0 | 5.4% | . | -0.7
Oc1c(N=NC(=S)Nc2ccccc2F)c2ccccc2n1Cc1ccccc1Cl | -27.3 | 0.2 | ? | 1.7% | ? | -3.9
c1ccc(CN2CCN(c3nc(N4CCOCC4)c4ccccc4n3)CC2)cc1 | -16.7 | 1.0 | 25.0 | 2.1% | 21.9 | -1.7
CC[C@H](CO)Nc1nc(Nc2cccc(Cl)c2)c2ncn(C(C)C)c2n1 | -9.9 | 0.2 | -5.7 | -1.1% | -7.1 | -1.0
Cn1c(=O)c2c(nc(Br)n2C/C=N/NC(N)=S)n(C)c1=O | -4.1 | -0.2 | -5.9 | 0.1% | -6.3 | -2.4
CC(=O)Nc1cccc(NC(=O)C2CCCN2C(=O)Nc2cccc(F)c2)c1 (stereo not drawn) | -9.6 | -0.2 | 12.5 | -1.7% | -5.5 | 0.2
Cn1nnnc1SCC(=O)Nc1sccc1C(N)=O | -9.6 | 0.8 | -4.7 | -1.4% | -8.1 | -1.0
COC1CCN(C(=O)c2cc(COc3ccc(-n4cncn4)cc3)on2)CC1 | 0.5 | -0.2 | 4.6 | 0.5% | . | 4.9
COc1ccc2ccccc2c1-c1csc(N)n1 | -6.8 | 0.8 | -0.6 | 1.1% | . | -4.6
COc1ccc(CC(=O)NCc2ccc3c(c2)OCO3)cc1 | -7.8 | 0.5 | 5.5 | 1.6% | 9.6 | -0.8
Cc1ccc(S(=O)(=O)NN2C(=O)/C(=C/c3ccc(C(=O)O)cc3)SC2=S)cc1 | -7.6 | -0.4 | -13.9 | -1.4% | 0.0 | -5.2
O=C(/C=C/c1cccc([N+](=O)[O-])c1)n1cnc2ccccc21 | 0.7 | 0.3 | 41.0 | -1.4% | -19.4 | -0.3
C=CCn1c(=NC(=O)C2CCCCC2)sc2cc(NC(C)=O)ccc21 | -3.6 | -0.3 | 6.5 | 3.2% | -0.4 | -6.4
CN1CCN(c2cccc3c2S(=O)(=O)N[C@H](Cc2ccccc2)CO3)CC1 | . | 0.7 | -2.4 | 1.3% | -7.6 | .
COC(=O)COc1cccc(-n2cnnn2)c1 | 14.2 | 0.0 | 1.6 | 5.3%[38.3 µM] | 6.0 | -1.0
CC1CCN(CC(=O)N2c3ccccc3CC2C)CC1 (stereo not drawn) | -7.1 | 0.4 | 0.8 | -0.6% | 1.8 | -1.4
CC(C)N1CCN(Cc2cccc3nonc23)CC1CCO (stereo not drawn) | -7.6 | 0.3 | 5.9 | -2.7% | 8.1 | -2.3
Cc1cccc(NC(=S)NC23CN4CN(CN(C4)C2)C3)c1C | -1.8 | -0.3 | -1.0 | -0.1% | 9.4 | -3.1
N#CC1=C(O)CCCn2c1nc1ccccc1c2=O | 5.3 | 0.6 | -0.5 | . | 9.0 | 0.6
CCCCCCn1c(N2CCC(C(N)=O)CC2)nc2c1c(=O)[nH]c(=O)n2C | -0.5 | 1.1 | -0.5 | -0.3% | 1.5 | -2.0
Cc1ccc(OCC2Cn3c(nc4c3c(=O)[nH]c(=O)n4C)O2)cc1C (stereo not drawn) | 2.1 | 1.3 | 7.4 | 1.8% | 2.8 | -1.7
CCC(C)(C)NC(=O)C(OC(=O)c1cc2sccc2n1C)c1ccc(OC)cc1 (stereo not drawn) | -3.2 | 2.1 | 1.2 | 19.3%[38.3 µM] | 2.6 | -1.1
CCOC(=O)c1c(NC(=O)c2cccs2)sc(CC)c1-c1cccs1 | 1.9 | 2.4 | 63.2 | 17.4%[38.3 µM] | 95.8 | 1.2
O=C(Nc1cccc(C(F)(F)F)c1)c1cccnn1 | -5.4 | 2.4 | 0.6 | 1.8% | 6.2 | -0.1
CCOC(=O)c1sc2cc([N+](=O)[O-])cc(SCC(C)C)c2c1N | 3.1 | 13.6 | -13.7 | ? | -10.0 | -7.8
O=C(N=C1SCC(=O)N1c1ccccc1Cl)c1ccccc1 | -7.9 | 0.2 | -6.2 | -1.0% | -0.5 | -1.2
CC(C)(C)C1=Nn2c(nnc2-c2ccco2)SC1 | -6.4 | 0.6 | -3.5 | -2.8% | -6.8 | 0.9
CC(=O)N(Cc1cccnc1)c1cccc(-c2nc3ccccc3s2)c1 | -32.2 | -1.1 | 3.0 | -0.1% | -3.6 | 1.6
N#Cc1nnn2c1nc(N)c1c(Cl)cccc12 | -0.9 | -0.5 | -2.1 | -0.8% | -2.1 | -1.2
Cc1nn(Cc2ccccc2)c(N)c1C#N | 0.7 | -0.5 | 12.8 | 3.2% | -0.2 | -0.1
Cc1cc(=O)c2c(o1)C(=O)c1occc1C2=O | 52.2* | 0.3 | -29.0 | 4.9% | -0.4 | ?
O=C(CN1CCN(C(=O)C2CCN(C(=O)/C=C/c3ccccc3)CC2)CC1)Nc1ccc(F)cc1 | -1.9 | 1.5 | 7.6 | -0.7% | -3.1 | 3.4
CCCCNC(=O)C(NC(=O)c1cccnc1)C(=O)c1ccccc1 (stereo not drawn) | -4.5 | -0.6 | -1.1 | -0.4% | 5.6 | -1.7
CC(C)[C@H](NC(=O)OCc1ccccc1)C(=O)OCc1ccccc1 | -10.8 | 1.3 | 26.7 | -0.2% | 43.5 | -6.1
Cc1cc(C)n2nc(C(=O)OCC(=O)N(CCC#N)c3ccc(F)cc3)nc2n1 | -3.7 | 0.2 | 7.2 | -2.3% | -13.4 | 3.7
CCN(CCO)Cc1csc2ccccc12 | -8.8 | 0.3 | -0.4 | 2.4% | 9.0 | -8.2
CC(C)(C)C(=O)[C@@H]1[C@@H]2C(=O)N(c3ccc4c(c3)OCCO4)C(=O)[C@@H]2C2c3ccccc3C=CN21 (stereo partly drawn) | -0.3 | 0.0 | -16.0 | -0.3% | -5.4 | 0.6
COc1cccc(-c2cnc(C(O)c3ccc(Cl)c(F)c3)[nH]2)c1 (stereo not drawn) | -13.4 | -1.3 | -9.6 | 3.4% | -2.3 | -3.0
CCCC(=O)Nc1ccc(NC(=O)CCc2ccccc2)cn1 | 5.5 | -1.3 | 11.8 | 1.6% | -3.7 | -0.6
Cc1c(NC(=O)C2(c3ccccc3)CCOCC2)c(=O)n(-c2ccccc2)n1C | 6.2 | 0.0 | 6.3 | 1.3% | -1.6 | -3.0
CCCCNC(=S)NNC(=O)c1cccnc1 | -13.3 | -0.3 | -1.5 | -1.5% | 3.4 | -5.5
CCCCSC(=O)Nc1ccccc1 | -10.6 | 2.9 | 13.6 | -2.4% | 10.3 | -3.9

Seven consecutive records out of the list so far:
SMILES | D2 potentiator | TRPML1 ag | Six1-Eya2 blk | PINK1 expr mod | CtBP-E1A inh | D2 agonist
CC(C)[C@H](NC(=O)OCc1ccccc1)C(=O)OCc1ccccc1 | -10.8 | 1.3 | 26.7 | -0.2% | 43.5 | -6.1
Cc1cc(C)n2nc(C(=O)OCC(=O)N(CCC#N)c3ccc(F)cc3)nc2n1 | -3.7 | 0.2 | 7.2 | -2.3% | -13.4 | 3.7
CCN(CCO)Cc1csc2ccccc12 | -8.8 | 0.3 | -0.4 | 2.4% | 9.0 | -8.2
CC(C)(C)C(=O)[C@@H]1[C@@H]2C(=O)N(c3ccc4c(c3)OCCO4)C(=O)[C@@H]2C2c3ccccc3C=CN21 (stereo partly drawn) | -0.3 | 0.0 | -16.0 | -0.3% | -5.4 | 0.6
COc1cccc(-c2cnc(C(O)c3ccc(Cl)c(F)c3)[nH]2)c1 (stereo not drawn) | -13.4 | -1.3 | -9.6 | 3.4% | -2.3 | -3.0
CCCC(=O)Nc1ccc(NC(=O)CCc2ccccc2)cn1 | 5.5 | -1.3 | 11.8 | 1.6% | -3.7 | -0.6
Cc1c(NC(=O)C2(c3ccccc3)CCOCC2)c(=O)n(-c2ccccc2)n1C | 6.2 | 0.0 | 6.3 | 1.3% | -1.6 | -3.0

Screening data from PubChem BioAssay.
